Source: PubChem BioAssay (Center for Chemical Genomics, University of Michigan)
CDC25B CDK2 inh – primary biochemical HTRF screen for blockers of M-phase inducer phosphatase 2 binding to CDK2/cyclin A; z-score (no concentration beside the values); HTRF CDC25B-CDK2/CyclinA binding, anti-His/anti-Flag; stronger effect = higher value; actives 0.72% (n = 94,000);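 further: score is relative to mean and SD of negative controls; strong numbers were not always called active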
TAR Tat displ – TAR RNA-Tat peptide displacers, HIV-1, primary screen, biochemical, FRET, FAM/TAMRA-labeled Tat; z-score (test concentration not listed); actives 0.6% (n = 100,000); HIV-1 TAR RNA, Tat peptide displacement FRET; stronger effect = higher value;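 further: score is relative to mean and SD of negative controls; some compounds called inactive have numbers as strong as hits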
Active calls of the source: *; · = no result given.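 How the source made its calls: active means z-score from 3 up in half or more of its runs; inactive means the rest.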

smiles,CDC25B CDK2 inh,TAR Tat displ
Cc1nc(CNC(=O)c2oc3ccc(F)cc3c2C)cs1,-0.45,1.21
CCC(C)NC(=O)c1ccc2c(=O)n3c(nc2c1)CCCCC3 (stereo not drawn),-2.11,·
Cc1ccc(S(=O)(=O)Oc2ccccc2/C=N\NC(=S)Nc2cc(Cl)ccc2Cl)cc1,-1.85,·
c1ccc(COc2ccc(Nc3c4c(nc5nncn35)CCC4)cc2)cc1,-2.67,2.96
CCc1nc(NCCN(CC)CC)c(C#N)c2c1CCCC2,-1.64,·
CCN1CCCC1CNC(=O)C1CCN(S(=O)(=O)c2cn(CC)cn2)CC1 (stereo not drawn),·,0.18
CCCc1cc2c(=O)c(-c3ccc(C(=O)OCC)o3)c(C)oc2cc1O,-1.26,3
CCc1nc(Oc2cccc(OC)c2)c2oc3ccccc3c2n1,·,0.19
CN=C(C)/C(C(=O)OC)=C(/O)c1ccc(Cl)cc1Cl,-0.75,·
CCOC(=O)/C=C(\C)Nc1cccc(N/C(C)=C/C(=O)OCC)c1C,-1,·
Clc1ccc(CNc2ccc3nncn3n2)cc1,-1.64,0.3
O=C(Cc1noc2ccccc12)NCCN1CCOCC1,-0.64,2.25
O=C1NCCCCC1N=CNO (stereo not drawn),-0.82,·
Cc1nc(N(C)C)cc(N2CCN(S(=O)(=O)c3ccccc3Cl)CC2)n1,-0.65,-2.01
O=C(Sc1ccccn1)c1cnn(-c2ccccc2)c1C(F)(F)F,-0.2,·
Cc1ccc(S(=O)(=O)c2c[nH]c3ccncc3c2=O)cc1,-0.51,1.77
CC1CCC(NC(=O)CN(C)S(=O)(=O)c2ccc3c(c2)C(C)(C)C(=O)N3C)CC1 (stereo not drawn),·,0.28
CCSc1nc2c(c(=O)[nH]1)C(c1cccc(O)c1)CC(=O)N2 (stereo not drawn),-1.39,0.62
CC(C)n1c2ccccc2c2ccccc21,-0.02,1.84
O=C(Nc1nn[nH]n1)c1cc(-c2ccccc2Cl)nc2ccccc12,0.29,·
Cc1cccc(CSc2nc3n(n2)C(c2cccs2)C2=C(CCCC2=O)N3)c1 (stereo not drawn),-1.83,·
Fc1cnc(Nc2ccccc2)nc1N1CCOCC1,0.62,·
COc1ccccc1CC(=O)NC1CC2CCC(C1)N2C (stereo not drawn),-0.09,·
CC1CCC(N2CC(=O)N(C3CC3)C(c3ccc(F)cc3)C2=O)CC1 (stereo not drawn),1.52,·
O=C(NC1CCCC1)c1ccc(-c2ccc(S(=O)(=O)N3CCCC3)cc2)cc1,·,1.17
COc1cc(OC)c(NC(c2nnc(-c3ccccc3)o2)c2ccccc2F)cc1Cl (stereo not drawn),-1.23,0.64
Cc1ccc(-c2onc3ccc(C(=O)N4CCCC4)cc23)cc1,·,0.32
O=C(CSc1nnc(-c2ccncc2)o1)OCc1ccccc1,·,0.62
COc1cc(Cl)c(C)cc1Nc1nc2ccccc2n2nnnc12,-1.6,-0.15
O=C(NCc1ccncc1)C(=O)NCC(c1ccco1)S(=O)(=O)c1ccc(F)cc1 (stereo not drawn),·,1.06
COc1cccc(-c2ccc(-c3noc(-c4cc(OC)cc(OC)c4)n3)c(OC)n2)c1,1.02,-5.19
COCCOC(=O)C1=C(C)N=C2SCCC(=O)N2C1c1ccc(OC)cc1 (stereo not drawn),1.1,1.29
COc1ccc(S(=O)(=O)[C@H]2CS(=O)(=O)C[C@@H]2NCCc2ccccc2F)cc1,-0.74,2.06
Cc1ccc(N2C(=O)C3ON(c4ccccc4)C(c4ccco4)C3C2=O)cc1 (stereo not drawn),-1.58,1.01
O=C(O)CCc1ccc(-c2ccccc2)n1Cc1ccco1,-1.33,0.68
Cc1ccc(-c2n[nH]n3c2nc(=O)c2ccc(C(=O)NC4CC4)cc23)cc1,·,2.04
Clc1cccc(-c2noc3ncnc(NCCc4ccccc4)c23)c1,·,0.48
Cc1cc2c3c([nH]c2cc1S(=O)(=O)N1CCc2ccccc21)CC(C)(C)CC3=O,·,0.16
C=CCOc1cccc(-c2nc3c(c(=O)[nH]2)Cc2cccc(OC)c2O3)c1,0.46,3.65
Cc1ccc(C(=O)CSc2nc3nc(C)cc(C)n3n2)cc1,-3.13,-0.23
S=c1[nH]ccn1-c1cc(Cl)ccc1Cl,-1.03,·
Cn1nc(Br)nc1Sc1ccccc1NC(=O)C(C)(C)C,·,2.61
CC1=C(c2ccc(C)cc2)S(=O)(=O)NC1=NCCC(C)C,0.41,0.41
CCN(CC)CCCN(C)C(=O)Nc1cn(C)c(=O)c2ccccc12,·,-2.15
C=CCN1C(C(=O)c2ccccc2)=C(NC(=O)c2ccccc2)c2ccccc2S1(=O)=O,-0.17,0.69
CC(C)CCNc1ncnc2onc(-c3cccc(Cl)c3)c12,·,1.14
O=C(NCC1CCS(=O)(=O)C1)Oc1ccccc1 (stereo not drawn),-1.03,-0.86
COc1ccc(S(=O)(=O)N2CCc3ccccc3C2)c2ccccc12,0.42,·
COc1cc(OC)c2c(=O)c(-c3ccccc3)c(C)oc2c1OC,·,0.22
O=C(O)CCC(=O)Nc1ccccc1Oc1ccc(Cl)cc1Cl,0.29,·
Cc1cc(-c2ccc(=O)[nH]n2)cc(S(=O)(=O)N(C)c2ccccc2)c1C,·,1.64
COc1ccc(OC)c(C2CCN(S(=O)(=O)c3ccc4c(c3)C(C)(C)C(=O)N4C)C2)c1 (stereo not drawn),·,-0.11
COc1ccc(C2Nc3c(C)cccc3-c3cc(C)nn32)cc1OC (stereo not drawn),-0.71,1.37
CN1C(C(=O)Nc2ccc(F)cc2F)=CC(c2cccs2)=NS1(=O)=O,-1.17,0.78
CS(=O)(=O)N1CCc2cc(C(=O)N3CCN(Cc4ccc5c(c4)OCO5)CC3)ccc21,0.52,0.57
CCCCN(Cc1ccccc1)C(=O)C1CCN(Cc2ccc(O)c(OCC)c2)CC1,-1.22,·
O=C(c1cc2c(Cl)ccc3c2n1CCO3)N1CCc2ccccc2C1,·,0.26
CCc1cccc(C)c1Nc1c(-c2ccc(N3CCOCC3)cc2)nc2cnccn12,-1.79,-3.87
CC(NS(=O)(=O)c1ccccc1)c1nc(-c2ccc(Cl)cc2)no1 (stereo not drawn),1.3,2.28
Cc1cccc2c1Oc1nc(-c3ccc(Cl)cc3)[nH]c(=O)c1C2,-0.09,0.39

Next part
smiles,CDC25B CDK2 inh,TAR Tat displ
CCOc1ccc(C(=O)OCc2cc(=O)n3nc(C4CC4)sc3n2)cc1,·,1.16
CCOC(=O)c1c(C)sc(-c2c(-c3ccccc3)[nH]c3c2c(=O)[nH]c(=O)n3C)c1O,-1.49,-1.02
Cc1noc(/C=C/N(C)C)c1S(=O)(=O)N1CCCC(C(=O)NCCC2=CCCCC2)C1 (stereo not drawn),-1.73,1.49
CCOc1cc(CNc2ccc3[nH]c(=O)[nH]c3c2)cc(Cl)c1OCC,7.71*,-2.57
Cn1c(=O)c(=O)n(C)c2cc(N3CCOCC3)c(NS(=O)(=O)c3ccc(F)c(Cl)c3)cc21,·,1.77
COC(=O)CSc1ncn(-c2nc(C)cc(OC)n2)n1,0.92,1.44
Cc1nc(Nc2ccc3c(c2)OCCO3)c2c3c(sc2n1)CCC3,·,3.37
CCSCCOC(=O)C1=C(C)NC(=O)CC1c1c(F)cccc1Cl (stereo not drawn),-1.95,1.15
O=C(NCc1ccccn1)c1[nH]nc2c1CCc1ccccc1-2,·,-0.8
O=C1c2ccncc2C(=O)N1CO,-0.37,·
Cc1noc(C)c1CCNC(=O)C1CCCN1c1nnc(N2CCCC2=O)s1 (stereo not drawn),·,0.96
O=S(=O)(Oc1ccccc1N1CCOCC1)c1cccc(Cl)c1,-2.11,·
CCCCC(CC)C1OCC(CN2CCCC2)O1 (stereo not drawn),0.2,·
COc1ccc(Cl)cc1NC(=O)COc1cc(CSc2nccn2C)ncc1OC,·,0.57
CC(C)Oc1ccccc1C1CC(=O)Nc2nc(SCc3ccccc3Cl)[nH]c(=O)c21 (stereo not drawn),-2.88,0.73
CCS(=O)(=O)NCCc1csc2nc(-c3cccc(F)c3)nn12,·,1.2
Cc1cc(C)c2c(c1)c(C)cc1nnc(SCC(=O)Nc3c(C)n(C)n(-c4ccccc4)c3=O)n12,-1.96,1.6
Fc1ccc(-c2n[nH]c3c2cnc2cc4c(cc23)OCCO4)cc1,5.98,2.85
CCC(=O)OCCn1c(=O)c2cc3c(=O)n(CCOC(=O)CC)c(=O)c3cc2c1=O,-1.14,·
O=C(Nc1ccc2c(c1)OCO2)C1(c2cccs2)CCOCC1,·,1.38
COc1ccccc1C1OC(=O)C[C@H]1C(=O)Oc1cccc(C(F)(F)F)c1 (stereo partly drawn),-1.35,·
Cc1ccc2nc(SCc3cn4cccnc4n3)[nH]c2c1,-0.79,·
NC(=O)OCCOCC(F)(F)C(F)F,-0.98,·
O=C(c1cccs1)N1CCC(N2CCN(c3ccccc3)CC2)CC1,-0.58,·
COc1ccccc1OCc1nc2ccccc2[nH]1,·,0.97
COC(=O)c1nn(-c2cccc(Cl)c2)c2c(=O)[nH]cnc12,-1.35,-1.87
CC(C)c1ccc(N=Nc2c(O)[nH]c(=S)[nH]c2=O)cc1,2.32,·
CN(CC(=O)N1CCc2ccccc21)S(=O)(=O)c1ccc2c(c1)C(=O)NCC(=O)N2,·,1.31
CC(C)CCNC(=O)CCc1nnc2ccc(N3CCCC3)nn12,·,-0.5
Cc1c(C(=O)OC(C)C)[nH]c2c1C(=O)CC(c1ccc(N(C)C)cc1)C2 (stereo not drawn),-0.94,1.03
CNc1nc(N)c([N+](=O)[O-])c(Nc2cc(OC)ccc2OC)n1,·,0.81
Cn1c(=O)c2c3nc4ccccc4cc3c(=O)n(C)c2n(C)c1=O,20.1*,·
O=C(NCCN1CCOCC1)C1CCCN(S(=O)(=O)N2CCOCC2)C1 (stereo not drawn),·,-0.15
O=S(=O)(c1ccc(Cl)cc1)c1cnc2ccccc2c1N1CCCC1,0.78,-0.24
COc1cc(Br)cc2c1Oc1nc(-c3cccc(OC)c3OC)[nH]c(=O)c1C2,-0.55,2.42
O=C(CN1C(=O)c2ccccc2S1(=O)=O)N1CCN(C(c2ccccc2)c2ccccc2)CC1,-0.29,·
O=C(CS(=O)(=O)c1cccc2nsnc12)Nc1cccnc1,·,-0.07
CCOc1cc(C2C=C(C(=O)O)Nc3nnnn32)ccc1O (stereo not drawn),3.16,1.03
O=C(CC(=O)Nc1ccc2nc3n(c(=O)c2c1)CCCCC3)Nc1ccc(Cl)cc1,2.25,1
O=[N+]([O-])c1ccc(-c2n[nH]c(=S)o2)o1,-0.95,·
O=C(CSc1nc2cc(Cl)ccc2o1)c1cc2ccccc2o1,-0.52,·
CCCOc1ccc(C2C(C(=O)OCCOC)=C(C)N=C3SCCC(=O)N32)cc1 (stereo not drawn),0.35,1.59
COc1ccc(COC(=O)C2=C(C)NC3=C(C(=O)CC(C)(C)C3)C2c2ccc(SC)cc2)cc1 (stereo not drawn),-2.4,1.26
Nc1c(C(=O)c2ccccc2)oc2ccccc12,-1.13,0.11
COc1ccc(C)cc1S(=O)(=O)Nc1cc(N2CCCS2(=O)=O)ccc1C,·,0.4
Cc1cc(-c2ccc(S(=O)(=O)Nc3ccc(F)c(F)c3)s2)on1,·,1.24
CCCCNc1nc(C)nc2c1sc1nc3c(cc12)COC(C)(C)C3,-22.5,0.76
CC(C)Cn1c(C2CC(=O)N(c3ccc(Cl)cc3)C2)nc2ccccc21 (stereo not drawn),-2.42,0.14

In the list so far, these have a CF3 group.
smiles,CDC25B CDK2 inh,TAR Tat displ
O=C(Sc1ccccn1)c1cnn(-c2ccccc2)c1C(F)(F)F,-0.2,·
COc1ccccc1C1OC(=O)C[C@H]1C(=O)Oc1cccc(C(F)(F)F)c1 (stereo partly drawn),-1.35,·

Part of the list above, as labelled records:
structure: CC1CCC(N2CC(=O)N(C3CC3)C(c3ccc(F)cc3)C2=O)CC1 (stereo not drawn)
  CDC25B CDK2 inh: 1.52; TAR Tat displ: ·
structure: O=C(NC1CCCC1)c1ccc(-c2ccc(S(=O)(=O)N3CCCC3)cc2)cc1
  CDC25B CDK2 inh: ·; TAR Tat displ: 1.17
structure: COc1cc(OC)c(NC(c2nnc(-c3ccccc3)o2)c2ccccc2F)cc1Cl (stereo not drawn)
  CDC25B CDK2 inh: -1.23; TAR Tat displ: 0.64
structure: Cc1ccc(-c2onc3ccc(C(=O)N4CCCC4)cc23)cc1
  CDC25B CDK2 inh: ·; TAR Tat displ: 0.32

Grouped by structure, the compounds so far containing bromine.
smiles,CDC25B CDK2 inh,TAR Tat displ
Cn1nc(Br)nc1Sc1ccccc1NC(=O)C(C)(C)C,·,2.61
COc1cc(Br)cc2c1Oc1nc(-c3cccc(OC)c3OC)[nH]c(=O)c1C2,-0.55,2.42

The results go on.
smiles,CDC25B CDK2 inh,TAR Tat displ
Cc1cc(C)cc(Nc2c(-c3ccc(Cl)cc3)c(=O)c2=O)c1,·,-0.59
COc1ccc(OC)c(S(=O)(=O)N2CCN(C)CC2)c1,-0.74,1.27
CCN(CC)CCNC(=O)c1cc(S(=O)(=O)N2CCc3ccccc32)cn1C,1.48,2.04
Cc1nnc(SCc2ccco2)c2c1nnn2Cc1ccc(F)cc1,-1.7,0.02
CCC(C)NC(=O)CCCN1C(=O)CCn2nc(C)cc21 (stereo not drawn),·,-1.12
COC(=O)c1cc(OC)c(OC)cc1N1C(=O)CC(C)(C)CC1=O,-1.33,·
